Bioassay records (PubChem)
FGF22 binding = binders of recombinant human FGF22 by thermal shift; Q9HCT0; 340,000 compounds, 1.5% hits; calls only at 9.99 µM; SYPRO orange fluorescence; percent of sucrose octasulfate shift, DMSO zero;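 active = melting point raised past a set limit in the mean and every replicate; inconclusive = no clear call; three in four hits are not shown here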
Target sequence (Q9HCT0 whole entry, looked up): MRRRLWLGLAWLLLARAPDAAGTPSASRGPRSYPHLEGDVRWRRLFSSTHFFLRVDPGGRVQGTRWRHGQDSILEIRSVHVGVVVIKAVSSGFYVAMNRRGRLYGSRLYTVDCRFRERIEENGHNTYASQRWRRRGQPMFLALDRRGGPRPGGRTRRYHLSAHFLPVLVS
HNF4A DNA FP = change in binding of human HNF4 alpha to DNA. HNF4a-FITC DNA binding, fluorescence polarization, 1 h. AID 1224865. activity change, % at 10 µM. P41235. 360,000 compounds, 0.3% hits; in the data active = activity change above about 30%, passing the limit was not always enough;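 also: controls were the assay level and a saturating level of protein; the project sought stronger binding though the title names inhibitors; some compounds called inactive have numbers as strong as hits; positive values seem to mean higher polarization but the record does not say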
UCH37 inh = blocks the human deubiquitinase UCH37; Q9Y5K5; purified proteasome/UCH37, Ub-AMC cleavage fluorescence; inhibition, % (no concentration beside the values); 330,000 compounds, 0.33% hits; AID 588478;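 active = mean of two replicates above 20%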;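 also: 0% = compound-free wells with enzyme and 100% = wells lacking proteasome; stock transfer was 100 nL into about 20 µL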
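assay system = human UCH37 enzyme supplied as purified proteasome complex | amount = proteasome at 0.15 nM in the dispensed enzyme solution | schedule = 30 min compound-proteasome preincubation then 25 min substrate reaction, room temperature | measured by = fluorescence, ex 355 nm, em 460 nm | benchmarks = no-proteasome wells (full inhibition) and compound-free wells (no inhibition)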
ALR inh = human ALR oxidase inhibition via reduced H2O2; P55789; inhibition, % (test concentration not listed); AID 485317; purified ALR, DTT oxidation, H2O2 HRP-luminol luminescence; 290,000 compounds, 3.8% hits;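 active = mean and each replicate at 75% or more; inconclusive = only one of the two met; inactive = neither met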;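 also: stock transfer was 7.5 nL into about 7.5 µL; 0% = neutral wells and 100% = wells with inactivated enzyme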
Target sequence (P55789 whole entry, looked up): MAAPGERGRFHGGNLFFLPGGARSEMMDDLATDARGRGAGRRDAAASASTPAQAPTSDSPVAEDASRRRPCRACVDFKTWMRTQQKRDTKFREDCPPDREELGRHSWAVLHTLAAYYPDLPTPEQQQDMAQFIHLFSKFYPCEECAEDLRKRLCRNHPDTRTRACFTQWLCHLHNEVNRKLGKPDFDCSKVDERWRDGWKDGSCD
Beta2AR agonist = agonists of human beta-2 adrenergic receptor inducing internalization; AID 504454; response, % (test concentration not listed); 340,000 compounds, 0.43% hits; Am2.2-beta2AR cells, FAP receptor internalization, flow cytometry; reference of the scale not given here; P07550;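 active = response above a set limit, near 3 SD of response in nonfluorescent compounds, cut at about 42% in these data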;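 also: stock transfer was 100 nL into about 11 µL; a reference agonist was the positive control; negative values mostly stem from fluorescent compounds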
Target sequence (P07550 whole entry, looked up): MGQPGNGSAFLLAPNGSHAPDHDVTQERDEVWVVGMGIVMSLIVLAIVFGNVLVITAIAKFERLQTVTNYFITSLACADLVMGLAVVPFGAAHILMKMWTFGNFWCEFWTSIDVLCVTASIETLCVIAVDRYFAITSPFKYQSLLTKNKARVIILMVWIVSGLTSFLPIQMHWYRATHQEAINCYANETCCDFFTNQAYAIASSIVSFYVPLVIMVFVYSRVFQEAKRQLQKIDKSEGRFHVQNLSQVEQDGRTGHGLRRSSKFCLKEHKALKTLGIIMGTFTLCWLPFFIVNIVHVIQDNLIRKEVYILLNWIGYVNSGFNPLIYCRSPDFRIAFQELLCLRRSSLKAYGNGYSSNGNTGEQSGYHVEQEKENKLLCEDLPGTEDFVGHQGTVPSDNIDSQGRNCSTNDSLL
Ecoli growth = inhibitors of Escherichia coli growth; OD600, 23 h; hits give low values; OD600 absorbance (test concentration not listed); 330,000 compounds, 0.21% hits;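 active = OD600 absorbance below the run mean of sample wells minus 3.6 SD, in any replicate, cut at about 0.56 in these data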;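 also: stock transfer was 300 nL into about 60 µL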
LANA-H2B inh = blocks KSHV LANA binding to histone H2A/H2B. inhibition, % (no concentration beside the values). AID 2629. cell-free LANA-H2A/H2B peptide, fluorescence polarization. 320,000 compounds, 0.6% hits; in the data active = inhibition mostly above about 10%, no sharp cut-off; inactive = mostly below about 6.7%;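 also: stock transfer was 7.5 nL into about 10 µL; 0% = median of vehicle wells and 100% = median of positive control wells; one replicate is shown; the record names a cut of 25% in any replicate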
* marks the source's active call; other numbers are inactive results; i = inactive; ? = inconclusive; / = no result given. An excerpt; count on the stated rates, not on these rows.

nr | Structure | FGF22 binding | HNF4A DNA FP | UCH37 inh | ALR inh | Beta2AR agonist | Ecoli growth | LANA-H2B inh
1 | O=C(c1cccc(Cl)c1)C1CCCN(S(=O)(=O)c2ccccc2)C1 (stereo unspecified) | / | 1.1 | 0.8 | 2 | -12 | 0.69 | 6.4
2 | COc1ccc(CCn2c(NN=C3CCCC3)nc3c2c(=O)[nH]c(=O)n3C)cc1 | i | -0.5 | -1.8 | -36 | -3 | 0.63 | 1.9
3 | CCCc1c(C(=O)Nc2ccc(N3CCOCC3)cc2)cnn1-c1ccccc1 | i | 4.0 | -1.6 | -7 | 3 | 0.67 | -13
4 | O=C(O)/C=C/c1ccc(OCc2cccc(F)c2)cc1 | / | 2.9 | -0.3 | -1 | -5 | 0.66 | 8.3
5 | CCOc1ccc(CCNC(=O)COC(=O)Cn2cnc3c2c(=O)n(C)c(=O)n3C)cc1OCC | i | -0.8 | 5.5 | 1 | -4 | 0.69 | -4.3
6 | NC(=O)c1ccc(NC(=O)COC(=O)c2ccc(Cl)nc2)cc1 | i | -1.0 | -0.5 | 0 | 2 | 0.66 | 12*
7 | N#Cc1c(N)nc2c(c1-c1ccncc1)CCCCC2 | / | 4.8 | -31 | -12 | -5 | 0.62 | -4.4
8 | COc1cccc(CN(C(=O)c2ccccc2Cl)C2CCS(=O)(=O)C2)c1 (stereo unspecified) | i | 3.8 | 7.8 | -3 | 3 | 0.7 | -2.7
9 | COCc1nnc(NC(=O)CSc2ccc(C)cc2)s1 | / | -0.7 | 5.4 | -8 | -9 | 0.73 | -1.0
10 | Cc1sc2c(c1C)c(=O)n(-c1cccc(C(F)(F)F)c1)c(=O)n2CC(=O)NCc1ccco1 | / | 1.2 | 5.3 | -18 | -4 | 0.66 | 0.3
11 | N#Cc1sc2nc(-c3cccs3)cc(-c3ccc(F)cc3)c2c1N | / | 4.4 | -32 | -25 | 10 | 0.69 | -2.5
12 | Cc1cccc(NC(=O)C(C)SCc2nc3sc(C)c(C)c3c(=O)[nH]2)n1 (stereo unspecified) | i | 12 | -8.2 | ? | 9 | 0.74 | -21
13 | O=C(Cc1ccccc1[N+](=O)[O-])NNC(=O)c1cccs1 | i | -0.7 | 3.0 | -35 | 6 | 0.72 | -2.1
14 | CC(CC(C)C(=O)N1CCOCCN(C(=O)C(C)CC(C)C(=O)O)CCOCC1)C(=O)O (stereo unspecified) | / | 0.8 | -3.2 | 11 | 5 | 0.71 | -4.0
15 | O=[N+]([O-])c1ncc(Br)cc1Nc1ccccc1 | i | 0.1 | 4.9 | / | -2 | 0.63 | 1.5
16 | CC(=O)NS(=O)(=O)c1ccc(N2C(=O)c3ccccc3C2=O)cc1 | i | -1.4 | -1.8 | -1 | -1 | 0.71 | 2.0
17 | COc1cccc(OCc2nc3ncc(Br)cc3[nH]2)c1 | / | -1.4 | 4.2 | 44 | -2 | 0.7 | 0.3
18 | O=C(CSc1nccn1Cc1ccco1)Nc1ccccc1 | i | 3.7 | 0.4 | 10 | -4 | 0.63 | 3.2
19 | CNC[C@@H]1Oc2ccc(NC(=O)Nc3cccc4ccccc34)cc2C(=O)N([C@@H](C)CO)C[C@@H]1C | i | / | / | -12 | / | / | -3.3
20 | O=C(NCc1ccc(Cl)cc1)C1CCN(C(=O)Cc2ccccc2)CC1 | i | 1.0 | 1.6 | -2 | -3 | 0.66 | 1.4
21 | COn1c2c(c3c4nonc4ccc31)CCCC2 | i | -1.1 | -18 | -3 | 7 | 0.66 | 3.8
22 | O=C(c1ccc(Cl)cc1)C1C2C(=O)N(c3ccccc3)C(=O)C2C2CCCN21 (stereo unspecified) | / | 0.7 | 3.9 | / | 5 | 0.74 | /
23 | Cc1nn(-c2ccccc2)c(Cl)c1/C=C/C(=O)c1ccc(O)cc1 | i | -3.9 | 1.3 | -21 | -6 | 0.7 | 1.5
24 | Clc1ccc(-c2nnc(-c3ccc(Br)cc3)c(N3CCSCC3)n2)cc1 | / | 1.0 | 2.9 | 0 | 4 | 0.72 | -2.3
25 | N=Nc1c(O)n(CC(=O)Nc2ccccc2)c2ccccc12 | i | 0.6 | 5.3 | -1 | -6 | 0.65 | 2.2
26 | O=C(NNc1ccccn1)C(=O)NNS(=O)(=O)c1ccc(Cl)cc1 | / | -2.2 | / | 99* | 6 | / | 1.9
27 | CN(Cc1ccccc1)C(=O)c1ccccc1-c1ccccc1 | i | -0.7 | 3.9 | -17 | 8 | 0.66 | -0.5
28 | CCn1c(SCC(=O)NCc2ccc(F)cc2)nc2c(c1=O)SC(C)C2 (stereo unspecified) | i | -0.7 | 7.3 | -1 | -2 | 0.72 | -10
29 | CC(=O)Nc1ccc(S(=O)(=O)NCC(=O)NNC(=O)c2csc(N3CCOCC3)n2)cc1 | i | -0.1 | -1.2 | 38 | -4 | 0.63 | -4.6
30 | O=C(C[C@H]1C[C@H](C(=O)N2CCCCC2)[C@@]2(CCc3ccccc3)c3[nH]c4cc(-c5ccco5)ccc4c3CCN2C1=O)NCc1cccc(C(F)(F)F)c1 | i | 20 | -35 | / | 4 | 0.72 | /
31 | CCOc1ccc(S(=O)(=O)N(C)CC(=O)N2CCCC2)cc1 | i | 4.2 | 1.7 | -3 | -8 | 0.69 | -1.8
32 | Cc1cccc(C(=O)Nc2cccc(C(=O)N/N=C/c3ccc4c(c3)OCO4)c2)c1 | i | -1.2 | / | -4 | 3 | / | -3.4
33 | CN(C)c1ccc(/C=N/n2c(-c3ccccc3Br)n[nH]c2=S)cc1 | i | 4.7 | / | 96* | 4 | / | -0.8
34 | CCc1noc(C)c1C(=O)N1CCSC1=Nc1cccc(Cl)c1C | i | 0.2 | / | -1 | 5 | / | -1.4
35 | Cc1ccc(-n2nnnc2SCC(=O)Nc2ccc3c(c2)OCCO3)cc1C | / | -1.2 | 0.6 | -6 | 9 | 0.72 | 6.2
36 | C#CCn1ccc(O)c(Cc2ccccc2)c1=O | i | 2.5 | 3.9 | 3 | 0 | 0.69 | -9.1
37 | CSc1ccc(/C=N/NC(=O)c2ccc(O)cc2)cc1 | i | 4.1 | / | 0 | 12 | / | 4.0
38 | COc1cc2c(cc1OC)CN(C(=O)C1CCC(=O)N(CCCN3CCOCC3)C1)CC2 (stereo unspecified) | i | -4.0 | -1.4 | 5 | 2 | 0.61 | -2.8
39 | Cn1c(Cc2ccc(Cl)cc2)nnc1SCC(=O)NC1CC1 | i | -0.5 | 4.8 | -4 | -5 | 0.67 | 0.9
40 | CCOc1ccccc1NC(=O)C1CCN(C(=O)Cc2ccccc2)CC1 | i | -4.4 | -0.6 | -1 | 3 | 0.73 | 0.8
41 | CCn1c(Cc2ccccc2)nnc1SCC(=O)N1CCCC1=O | i | 5.8 | -3.6 | -2 | -6 | 0.74 | 0.2
42 | Cc1cccc(N=C(N2CCOCC2)P(=O)(N2CCOCC2)N2CCOCC2)c1 | / | -0.5 | 2.6 | -7 | 3 | 0.7 | -1.0
43 | COc1ccccc1NC(=O)Nc1ccc(N2CCOCC2)cc1 | i | -2.3 | 3.5 | 50 | 4 | 0.68 | 2.2
44 | O=C(NNC(=O)c1ccccc1F)c1ccc2nc[nH]c2c1 | i | -1.4 | 3.0 | -14 | 1 | 0.74 | 1.7
45 | CC(C)(C)c1ccc(C(=O)Nc2cccc(C(=O)N3CCOCC3)c2)cc1 | i | 0.4 | 1.5 | 3 | 9 | 0.64 | -0.8

Laid out differently: 2 of the compounds above
43. COc1ccccc1NC(=O)Nc1ccc(N2CCOCC2)cc1
  FGF22 binding: i
  HNF4A DNA FP: -2.3
  UCH37 inh: 3.5
  ALR inh: 50
  Beta2AR agonist: 4
  Ecoli growth: 0.68
  LANA-H2B inh: 2.2

44. O=C(NNC(=O)c1ccccc1F)c1ccc2nc[nH]c2c1
  FGF22 binding: i
  HNF4A DNA FP: -1.4
  UCH37 inh: 3.0
  ALR inh: -14
  Beta2AR agonist: 1
  Ecoli growth: 0.74
  LANA-H2B inh: 1.7

Additional structures.
nr | Structure | FGF22 binding | HNF4A DNA FP | UCH37 inh | ALR inh | Beta2AR agonist | Ecoli growth | LANA-H2B inh
46 | CN(CC(=O)Nc1ccccc1-c1ccccc1)Cc1ccccc1Cl | i | 2.9 | -1.5 | -4 | 0 | 0.63 | -2.8
47 | CCCOc1ccccc1Cn1c(=O)oc2ccccc21 | i | 0.1 | 3.1 | -3 | 1 | 0.71 | 5.8
48 | COc1ccc(NS(=O)(=O)c2cc3c(cc2C)N(C(C)=O)CCO3)cc1OC | i | -7.1 | 0.9 | 13 | 6 | 0.67 | -1.2
49 | Brc1ccc(OCc2ccccc2)c(CNCc2ccncc2)c1 | / | -1.4 | 1.3 | 1 | 10 | 0.59 | 1.2
50 | COc1ccc(NC(=O)c2sc3nc(C)cc(C)c3c2N)c(OC)c1 | i | -2.2 | -180 | 6 | -10 | 0.68 | -0.1
51 | Cc1cccc(Cn2cnc3c(sc4nc(C)cc(C)c43)c2=O)c1 | i | 11 | 2.8 | 4 | 3 | 0.67 | -2.0
52 | O=C(OCc1nc2ccccc2s1)[C@@H]1CCCN1S(=O)(=O)c1ccccc1F | / | 2.1 | -1.0 | -16 | 5 | 0.73 | 4.5
53 | Cc1ccc(NC(=O)CC2SCCNC2=O)cc1Cl (stereo unspecified) | / | -1.9 | 2.2 | / | -1 | 0.68 | 3.4
54 | CC(=O)OCC1=C(C(=O)O)N2C(=O)C(NC(=O)c3ccc(F)cc3)C2SC1 (stereo unspecified) | i | -4.5 | 6.6 | -1 | 0 | 0.68 | -2.7
55 | Cc1c(C(=O)Nc2ccc(OCc3ccccc3)cc2)cccc1[N+](=O)[O-] | / | 5.8 | 6.2 | -6 | 14 | 0.71 | -13
56 | N#Cc1ccc(C(=O)CSc2n[nH]c(=O)n2-c2cccnc2)cc1 | i | 0.8 | 2.5 | 60 | 3 | 0.65 | -1.3
57 | O=C(COC(=O)/C=C/c1ccc(Cl)cc1Cl)Nc1ccc2c(c1)OCCO2 | i | 2.1 | 4.9 | -5 | -9 | 0.76 | -0.1
58 | CCCCn1nnnc1SCC(=O)NC1CCCCC1 | / | 1.5 | 4.0 | 2 | 5 | 0.69 | -14
59 | Clc1ccc(COc2ccccn2)c(Cl)c1 | / | 1.6 | 1.8 | -6 | 12 | 0.67 | 6.5
60 | COc1ccc(C(=O)N/N=C/c2ccc(OC)c(COc3c(F)c(F)cc(F)c3F)c2)cc1 | i | -5.3 | / | -13 | 11 | / | 0.3
61 | CC(=O)N1CCN(c2ccc(C(N)=O)cc2[N+](=O)[O-])CC1 | i | 3.2 | 1.1 | -5 | -4 | 0.71 | 0.7
62 | O=C(CCl)Nc1cccc2ncccc12 | / | 2.6 | 7.2 | -39 | 2 | 0.66 | -1.3
63 | COCCCn1c(=O)/c(=C\c2ccccc2OC(F)F)s/c1=C(/C#N)C(=O)NC(C)C | / | 22 | / | -2 | -6 | / | 4.4
64 | O=C(CCC(=O)N(CC(=O)NC1CCCC1)Cc1ccccc1)Nc1nccs1 | i | 8.0 | 0.9 | 0 | -3 | 0.7 | 2.6
65 | CCn1c(SCC(=O)NCc2ccccc2)nnc1-c1cccnc1 | / | -0.5 | 3.6 | -6 | 0 | 0.66 | -6.8
66 | CCCCOc1cccc(C(=O)Nc2ccc(S(=O)(=O)Nc3nnc(CC)s3)cc2)c1 | i | -1.7 | -0.3 | 97* | -12 | 0.71 | -1.6
67 | Cc1cccc(/N=C2/NC(=O)C(Cc3ccccc3)S2)n1 (stereo unspecified) | i | 9.7 | -3.1 | 5 | 11 | 0.69 | -6.1
68 | COc1cc(C)ccc1OCCOCCOc1ccc(C)cc1[N+](=O)[O-] | / | -0.1 | 4.1 | -32 | -2 | 0.72 | -1.2
69 | Fc1cccc(CN2CCN(c3nc4nonc4nc3NC3CC3)CC2)c1 | i | -3.7 | 5.3 | -7 | 2 | 0.67 | 1.5
70 | CON(C)c1nc(OCCNC(=O)OCc2ccc(Cl)cc2Cl)nc(N(C)C)n1 | / | -1.9 | 1.7 | -1 | 0 | 0.68 | -6.3
